Bioassay records as filed in PubChem BioAssay.
West Nile antiviral = West Nile virus antiviral activity, cell-based, CPE readout (AID 1621); one-dose CPE inhibition, % at 10 µM; IC50 in µM for titrated hits; 0.02% of 290,000 active; West Nile virus-infected cells, CPE inhibition; higher % means a stronger effect; in the data active = a potency from the dose series; inconclusive = CPE inhibition mostly from about 3.7% at the one dose, without a potency; inactive = the rest, 99 in 100 with CPE inhibition below about 2.2%; also: strong numbers were not always called active
Autophagy HCS = autophagy modulators in MEF cells, primary screen, imaging, high-content, MEF GFP-LC3 | calls only at 10 µM (by protocol) | 0.98% of 190,000 active | MEF GFP-LC3 puncta imaging; test concentration mostly 10 µM;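 active = percentage of spot-positive cells more than 3 SD above its plate mean, without a fluorescence outlier flag or 80% toxicity; inconclusive = no clear call, values can overlap the other calls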;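 also: spot-positive cell cutoff set from DMSO-treated cells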
Myeloid diff MLP = induction of myeloid progenitor differentiation, primary screen, cell-based, flow cytometry, MLPCN library; ER-HoxA9 myeloid progenitors, lysozyme-GFP differentiation; calls only at 10 µM; 1% of 360,000 active; AID 624256, 2012;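 active = normalized GFP-positive differentiation at or above the plate's own cutoff, the solvent-only control mean plus 3 SD; inconclusive = no clear call, values can overlap the other calls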;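 also: cells exposed to compound for four days before flow analysis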
Ins promoter up = insulin promoter activators in MIN6 cells, imaging, high-content screening, mouse beta cells; MIN6 insulin promoter-GFP reporter; active compounds read high; z-score at 5 µM; 0.3% of 190,000 active;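 active = z-score above 3 at 5 µM with at least 500 cells counted in the well; inconclusive = wells under 500 cells, flagged as cytotoxic or low count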
Lipid droplet = inhibitors of hepatocyte lipid droplet formation, primary screen, imaging, high-throughput imaging, BODIPY stain. AML12 mouse hepatocytes, oleate lipid droplets. 0.4% of 240,000 active. AID 1656, 2009. inhibition, % at 6.5 µM;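 active = lipid droplet intensity inhibited by at least 50%, with more than 500 cells counted; inconclusive = wells with under 300 cells, treated as cytotoxic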
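System: AML12 hepatocytes (mouse). Probe or stimulus: oleic acid at 100 µM to induce lipid droplet formation. Times: overnight treatment with compound plus oleate. Detection: Image-based BODIPY and DAPI two-channel analysis. Evaluation: percent inhibition of filter-corrected integrated lipid droplet intensity per well.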
T cell HTS = modulators of CD8 T cell-vesicle binding, primary screen, mouse 2C CD8+ T cells, flow cytometry; 0.068% of 330,000 active; AID 2052, 2009; 2C CD8+ T cell-vesicle binding; active compounds read low; calls only at 7 µM;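 active = response, share of CD8 T cells binding vesicles, and their 90th percentile fluorescence all below set limits, cut at about 80% in these data, passing the limit was not always enough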
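Also added: QL9-peptide-loaded Drosophila micro-vesicles bearing Ld, ICAM-1 and B7-1; Test system: purified 2C TCR transgenic mouse naive CD8+ T cells; Measured by: cytometric PE anti-B7-1 and Alexa647 anti-CD8 signals after 1% paraformaldehyde fixation; Timing: binding step 1.5 h, 37 °C, antibody labelling 20 min, ice.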
MT stabilizer = microtubule stabilizers in HeLa cells, primary screen, imaging, high-content imaging | HeLa tubulin immunostaining HCS, 24 h; share of cells brighter than vehicle mean+2SD | % tubulin-high responders, % at 10 µM | 0.83% of 200,000 active;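 active = plate Z-score above 3 for both tubulin-high and condensed-nucleus cell shares, with cell loss under 80%, at 10 µM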;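 also: anti alpha tubulin signal scored within the nucleus-defined area of each cell; some results filed as inactive read as strong as hits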
WT yeast gro inh = growth inhibition of WT strain, primary screen, mitochondrial fusion inhibitor project, WT and mutant strains, chemical genetic; mitochondrial fusion phenotypic screen; inhibition, % at 10 µM; 2.1% of 190,000 active; in the data active = inhibition above about 58%; tested in S. cerevisiae
WT yeast gro inh mutant strain = recorded beside WT yeast gro inh, whose call it bears; inhibition, %; mitochondrial fusion phenotypic screen, mutant strain inhibition
Ins promoter up cell count = second read-out of Ins promoter up, no call of its own (marks repeat the call); cell count; measured here: cytotoxicity, nuclei count;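 total cells summed across four imaged fields per well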
Lipid droplet cells 6.5 µM = second read-out of Lipid droplet, no call of its own (marks repeat the call); cell count; measured here: cell count, cytotoxicity flag;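 cells counted across two imaged fields per well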
T cell HTS vesicle-bound % = also measured in T cell HTS; calls as there; double positive events, %; measured here: CD8+ vesicle-bound cell fraction;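 binding gate set so that unloaded-vesicle control wells show 10% double positive cells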
MT stabilizer Hoechst-high % = recorded beside MT stabilizer, whose call it bears; % Hoechst-high responders; measured here: nuclear condensation Hoechst responders;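 share of cells brighter than vehicle mean plus two SD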
MT stabilizer cytotoxicity % = also measured in MT stabilizer; calls as there; toxicity, %; measured here: cytotoxicity by cell density;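 0% = mean cell density of plate MIN control wells and 100% = no cells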
Autophagy HCS cell loss 18 h = further read-out of Autophagy HCS, marked with its call; toxicity, %; measured here: cell loss, nuclei count;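 cell loss after 18 h compound exposure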
Myeloid diff MLP GFP+ MAC1+ % = recorded beside Myeloid diff MLP, whose call it bears; GFP+ MAC1+ double positive, %; measured here: differentiation confirmed by MAC1 staining
The depositor's hits bear a star; i = inactive; ? = inconclusive; . = no result given. Some of the compounds tested. The share of hits here may be higher or lower than overall.

SMILES	West Nile antiviral	Autophagy HCS	Autophagy HCS cell loss 18 h	Myeloid diff MLP	Myeloid diff MLP GFP+ MAC1+ %	Ins promoter up	Ins promoter up cell count	Lipid droplet	T cell HTS	T cell HTS vesicle-bound %	MT stabilizer	MT stabilizer Hoechst-high %	MT stabilizer cytotoxicity %	WT yeast gro inh	WT yeast gro inh mutant strain	others
Cc1ccc(C(=O)C(OC(=O)CCC(=O)Nc2cccc(C)c2)c2ccccc2)cc1 (configuration not stated)	-0.7%	i	5	i	1.2	-0.14	1555	.	i	45	0.7	1.2	7.6	20	5
O=S(=O)(N/N=C\c1cn(-c2ccccc2)nc1-c1ccccc1)c1ccccc1	-0.3%	i	24	i	6.6	-0.58	1532	.	i	34	1.7	1.7	7.2	27	26
O=C1CSC(c2ccccn2)N1c1ccccc1 (configuration not stated)	-0.7%	i	-17	i	6.6	-0.21	1726	.	.	.	4.9	3.8	7.0	-9	6
O=c1[nH][nH]c(C(F)(F)F)c1C=Nc1ccc(Cl)cc1	0.0%	i	1	i	0.3	-0.41	1577	.	i	53	1.8	1.4	11	15	-7
CCCC(C)NC1=NCCCCC1 (configuration not stated)	-0.2%	i	-1	i	1.3	-0.44	1604	.	i	32	3.6	2.0	7.3	9	6
Cc1ccc(CNc2ccc(O)cc2)cc1	.	i	-1	i	0.4	-0.16	1228	8	.	.	3.9	1.7	1.2	27	16	Lipid droplet cells 6.5 µM=722
COc1ccccc1NC(=O)CN1CCN(CC(=O)Nc2ccc(Cl)c(C(F)(F)F)c2)CC1	0.4%	i	17	i	1.0	-0.73	1501	.	.	.	2.7	2.5	3.5	50	44
Nc1nc(-c2ccco2)nn1C(=O)c1ccc(Cl)cc1	.	i	-1	i	1.1	-0.83	1482	.	i	27	2.7	1.1	1.4	-12	-5
CCOC(=O)c1sc(=N)n(-c2ccc(OC)cc2)c1C	.	i	-6	i	0.5	-0.15	1648	.	i	47	4.9	3.0	5.2	1	9
COc1ccc2[nH]c3nc(SCC(=O)NNC(=O)c4ccc(OC)c(OC)c4)nnc3c2c1	1.4%	i	14	i	4.2	0.28	1593	.	i	15	4.6	3.1	2.9	-22	-16
COC(=O)c1ccc(COc2ccc(/C=C(\C#N)c3nc4ccccc4[nH]3)cc2OC)o1	3.4%	i	1	?	.	0.36	1507	.	i	12	1.5	1.8	8.8	-11	-20
CC(C)(C)NC(=O)C(c1ccccn1)N(C(=O)C1CSC(=O)C1)c1ccc(F)cc1 (configuration not stated)	0.5%	i	0	i	0.5	0.43	1662	.	i	62	2.4	2.1	5.8	0	-9
CC(C)(C)c1ccc(C(=O)N2CCC(C(=O)NCCC3=CCCCC3)CC2)cc1	-1.0%	i	-15	i	1.7	-1.1	1617	.	i	42	1.6	1.2	10	-9	-26
CC(=O)c1cccc(NC(=O)CSCc2ccccc2)c1	0.1%	i	5	i	0.8	0.04	1612	.	i	59	1.3	1.3	7.0	10	6
CCN(CC)c1ccc(/C=N/NC(=S)NCc2ccccc2)cc1	0.2%	i	6	i	0.4	-0.11	1595	.	i	34	2.8	2.2	7.1	55	20
O=C(Nc1ccc(-c2nc3ccccc3o2)cc1)c1cccnc1	2.3%	i	1	i	1.3	-0.17	1636	.	i	38	2.1	1.8	6.2	18	-1
Cc1cc2cc(C(c3nnnn3C(C)(C)C)N(Cc3ccco3)CC3CCCO3)c(=O)[nH]c2cc1C (configuration not stated)	0.0%	i	-2	i	0.7	-0.42	1595	.	i	34	0.6	1.4	7.1	17	3
CCOC(=O)c1cnc2cc(-c3ccc(C)cc3)nn2c1-c1ccccc1	0.1%	i	-5	i	0.2	-0.27	1498	.	i	46	2.6	1.9	11	-2	-5
CN1C2C=C3C(C#N)=C(N)C(C#N)(C#N)[C@H](c4c(F)cccc4F)[C@H]3C1CC2 (some centres not stated)	-0.1%	i	6	i	1.8	0.04	1354	.	i	19	3.6	1.3	0.4	1	-17
CCN1C(=O)CC(NNC(=O)c2ccc(Cl)cc2)C1=O (configuration not stated)	0.0%	i	-3	i	1.1	0.46	1611	.	i	15	2.7	1.3	6.8	6	-14
CCn1nnnc1SCC(=O)NC1CCCC1	0.2%	i	-2	i	0.7	-0.11	1597	.	i	45	2.4	2.0	0.5	-16	4
COc1ccc(C2(C(=O)N3CCOCC3)CCCC2)cc1	1.1%	i	2	i	1.1	0.23	1627	.	i	35	2.4	1.6	1.3	8	6
O=C(CSc1ccc(Cl)cc1)N1CCN(c2ccc(Cl)cc2[N+](=O)[O-])CC1	-1.1%	i	-22	i	5.5	-0.32	1100	.	i	15	2.0	2.2	6.6	3	-3
CCCn1nc2cc(C(=O)NCc3ccc(OC)cc3)ccc2c1OCC	0.0%	i	-24	i	1.3	-0.09	1592	.	i	30	2.3	1.3	5.5	6	-1
O=C(/C=C/c1ccc(-c2ccccc2[N+](=O)[O-])o1)c1ccc(F)cc1	2.6%	i	26	i	1.8	0.32	1471	.	i	25	2.7	2.3	4.9	43	32
COc1ccc(Cl)cc1C(=O)N1CCN(c2ccccn2)CC1	-0.2%	i	1	i	1.1	-0.35	1614	.	i	14	4.6	2.4	2.2	37	-23
Cn1c(SCC(=O)NCc2ccc3c(c2)OCO3)nnc1-c1c[nH]c2ccccc12	0.6%	i	-2	i	2.0	0.98	1262	8	.	.	2.0	2.0	9.1	9	11	Lipid droplet cells 6.5 µM=750
CCOc1c2ccc(C(=O)NCc3ccco3)cc2nn1CCOC	-0.1%	i	-32	i	1.7	-0.16	1528	.	i	46	2.3	1.3	4.8	-5	3
Clc1ccc(-c2nnc(-c3ccco3)o2)cc1	-0.5%	i	6	i	6.9	-0.18	1679	.	i	15	3.4	2.0	4.1	-3	14
CCC(C)NC(=O)C(NS(=O)(=O)c1cccc2nsnc12)c1ccccc1 (configuration not stated)	.	i	9	i	2.5	-0.01	1575	.	i	20	4.2	2.8	15	13	21

Of the compounds above, these contain an aryl methoxy group.
SMILES	West Nile antiviral	Autophagy HCS	Autophagy HCS cell loss 18 h	Myeloid diff MLP	Myeloid diff MLP GFP+ MAC1+ %	Ins promoter up	Ins promoter up cell count	Lipid droplet	T cell HTS	T cell HTS vesicle-bound %	MT stabilizer	MT stabilizer Hoechst-high %	MT stabilizer cytotoxicity %	WT yeast gro inh	WT yeast gro inh mutant strain	others
COc1ccccc1NC(=O)CN1CCN(CC(=O)Nc2ccc(Cl)c(C(F)(F)F)c2)CC1	0.4%	i	17	i	1.0	-0.73	1501	.	.	.	2.7	2.5	3.5	50	44
CCOC(=O)c1sc(=N)n(-c2ccc(OC)cc2)c1C	.	i	-6	i	0.5	-0.15	1648	.	i	47	4.9	3.0	5.2	1	9
COc1ccc2[nH]c3nc(SCC(=O)NNC(=O)c4ccc(OC)c(OC)c4)nnc3c2c1	1.4%	i	14	i	4.2	0.28	1593	.	i	15	4.6	3.1	2.9	-22	-16
COC(=O)c1ccc(COc2ccc(/C=C(\C#N)c3nc4ccccc4[nH]3)cc2OC)o1	3.4%	i	1	?	.	0.36	1507	.	i	12	1.5	1.8	8.8	-11	-20
COc1ccc(C2(C(=O)N3CCOCC3)CCCC2)cc1	1.1%	i	2	i	1.1	0.23	1627	.	i	35	2.4	1.6	1.3	8	6
CCCn1nc2cc(C(=O)NCc3ccc(OC)cc3)ccc2c1OCC	0.0%	i	-24	i	1.3	-0.09	1592	.	i	30	2.3	1.3	5.5	6	-1
COc1ccc(Cl)cc1C(=O)N1CCN(c2ccccn2)CC1	-0.2%	i	1	i	1.1	-0.35	1614	.	i	14	4.6	2.4	2.2	37	-23
